HCMV UL50-53 inh: inhibitors of HCMV UL50-UL53 interaction, biochemical, HTRF | HCMV UL50-UL53 nuclear egress complex (human cytomegalovirus) | normalized percent inhibition | inhibition, % (concentration not given with the values) | 0.15% of 190,000 active;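 active = both replicates at 50% or more, plus weaker picks with an unusually low signal ratio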;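 note: stock transfer was 100 nL into about 20 µL; 0% = negative control wells and 100% = wells with untagged competitor protein; inactives centre near -12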
GIV Gai3 FP: inhibitors of GIV peptide binding to Galpha-i3, primary screen, biochemical, fluorescence polarization, FITC-GIV GBA peptide, rat Galphai3 | Guanine nucleotide-binding protein G(i) subunit alpha-3 (Rattus norvegicus), P08753 | 90 min; hits give low values; scaled: aluminum fluoride 0%, vehicle 100% | percent of control (FP), % (no concentration beside the values) | 0.42% of 210,000 active | AID 1224905, 2016;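 active = replicate mean at 85% of control or lower, very high polarization wells dropped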;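 note: wells of about 15 µL received 100 nL stock; the first replicate is given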
Target sequence (P08753 whole entry, looked up): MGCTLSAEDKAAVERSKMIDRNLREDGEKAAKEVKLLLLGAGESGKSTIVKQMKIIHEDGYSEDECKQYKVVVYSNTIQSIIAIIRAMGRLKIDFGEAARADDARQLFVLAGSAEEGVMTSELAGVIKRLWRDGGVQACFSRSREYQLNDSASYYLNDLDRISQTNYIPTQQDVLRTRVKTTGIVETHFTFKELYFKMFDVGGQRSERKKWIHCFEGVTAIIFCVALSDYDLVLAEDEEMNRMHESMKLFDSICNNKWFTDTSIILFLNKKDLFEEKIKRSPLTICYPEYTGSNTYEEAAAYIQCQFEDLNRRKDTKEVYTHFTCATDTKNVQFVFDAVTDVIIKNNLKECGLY
Sa growth inh: S. aureus growth inhibition at 42 and 30 °C, primary screen, LtaS inhibitor project, RN4220, two temperatures | relative growth, % (no concentration beside the values) | AID 720641, 2013 | OD600, 20 h, 42 °C; hits give low values | 0.53% of 170,000 active;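 active = growth at 42 °C up to 50% and 20 or more points under that at 30 °C, or under 10% at both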;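 note: 300 nL library stock went into each well; scaled to the means of positive and negative controls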
Sa growth inh second temp: recorded beside Sa growth inh, whose call it bears; relative growth, %; measured here: growth at 30 °C;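 optical density after 20 h as mean of two plates; 100% = untreated growth and lower means inhibition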
The depositor's hits bear a star; & = joins results of further samples.

Fc1ccc(-n2ncc3c(NCCCN4CCOCC4)ncnc32)cc1 was read as GIV Gai3 FP 104, Sa growth inh 111 and Sa growth inh second temp 88.
`Cc1cc(C)c(C)c(S(=O)(=O)N2CCN(c3ncnc4sc5c(c34)CCCC5)CC2)c1C` gave GIV Gai3 FP 99, Sa growth inh 107 and Sa growth inh second temp 90.
For Cn1nc(C(=O)Nc2cccc(Br)c2)c(Cl)c1C(F)(F)F the results were HCMV UL50-53 inh -12 and GIV Gai3 FP 102.
Screening CC(C)OCc1nc2ccccc2n1C returned HCMV UL50-53 inh -17&-15, GIV Gai3 FP 104&103, Sa growth inh 86 and Sa growth inh second temp 84.
For COc1ccc(CCN2C(=O)c3[nH]nc(-c4ccccc4O)c3C2c2ccc(OC)cc2)cc1 (stereo not given) the results were HCMV UL50-53 inh -3, GIV Gai3 FP 102, Sa growth inh 108 and Sa growth inh second temp 87.
`C=CCSc1nc2c(cnn2-c2ccc(Cl)cc2)c(=O)[nH]1` gave GIV Gai3 FP 98, Sa growth inh 108 and Sa growth inh second temp 94.
For Cc1ccc(NC(=O)/C=C2\NC(=O)CS2)cc1 the results were HCMV UL50-53 inh -10, Sa growth inh 115 and Sa growth inh second temp 98.
For CCN1C(=O)N/C(=C/c2ccc(OCc3ccc(C(=O)O)cc3)cc2)C1=O the results were GIV Gai3 FP 96, Sa growth inh 103 and Sa growth inh second temp 83.
`CNS(=O)(=O)c1ccc2c(c1)n(C)c(=O)n2C` gave HCMV UL50-53 inh 5, GIV Gai3 FP 100&98, Sa growth inh 102 and Sa growth inh second temp 90.
`Cc1cc(C(=O)CSc2nc3ccccc3c(=O)n2CCO)c(C)n1C(C)C` gave HCMV UL50-53 inh -12, Sa growth inh 106 and Sa growth inh second temp 90.
Screening O=C(COCc1cc(-c2ccc3c(c2)OCO3)on1)NCCC1=CCCCC1 returned HCMV UL50-53 inh -7 and GIV Gai3 FP 101.
Screening Cc1cc(C)c(Nc2ccc(Nc3ccc([N+](=O)[O-])cc3)c3c2C(=O)c2ccccc2C3=O)c(C)c1 returned HCMV UL50-53 inh 6 and GIV Gai3 FP 104.
Screening CC(C)(C)c1ccn[nH]1 returned HCMV UL50-53 inh -10 and GIV Gai3 FP 102.
`CCOC(=O)c1c(NC(=O)CCN2C(=O)/C(=C/c3ccc(OC)cc3)SC2=S)sc2c1CCCC2` gave HCMV UL50-53 inh -35 and GIV Gai3 FP 108.
COC(=O)CC(C(=O)Nc1ccc(C)cc1Br)N1CCN(C)CC1 (stereo not given) was read as HCMV UL50-53 inh 4, GIV Gai3 FP 103, Sa growth inh 95 and Sa growth inh second temp 90.
For CCN(CC)Cc1cc(OCc2nc(-c3cccc(C)c3)oc2C)nc2c1c(C)nn2C the results were HCMV UL50-53 inh -8 and GIV Gai3 FP 99.
For COc1ccc(OCc2nn3c(-c4cc5ccccc5[nH]4)nnc3s2)cc1 the results were HCMV UL50-53 inh -9 and GIV Gai3 FP 110.
For COCC(C)NC(=O)C1=CC(c2ccc(C)cc2)=NS(=O)(=O)N1C (stereo not given) the results were HCMV UL50-53 inh -21, GIV Gai3 FP 109, Sa growth inh 110 and Sa growth inh second temp 100.
For CCN(CC)S(=O)(=O)c1ccc(C(=O)Nc2ccc3c(c2)OC(C)(C)O3)cc1 the results were GIV Gai3 FP 106, Sa growth inh 93 and Sa growth inh second temp 73.
`Nc1nc2sc3c(c2c(=O)s1)CCCC3` gave HCMV UL50-53 inh -34, GIV Gai3 FP 102, Sa growth inh 71 and Sa growth inh second temp 65.
For CCOc1ccc(C(=O)c2cn(CC(=O)Nc3ccc4c(c3)OCCO4)c3ccc(F)cc3c2=O)cc1 the results were HCMV UL50-53 inh -34, GIV Gai3 FP 97, Sa growth inh 100 and Sa growth inh second temp 83.
Screening CC(=O)N/C(=C\c1cc(F)cc(F)c1)C(=O)O returned HCMV UL50-53 inh -6, GIV Gai3 FP 99, Sa growth inh 102 and Sa growth inh second temp 68.
`O=C1c2ccccc2-c2onc3ccc(Oc4c(F)c(F)c(F)c(F)c4F)c1c23` gave HCMV UL50-53 inh -51, GIV Gai3 FP 103, Sa growth inh 118 and Sa growth inh second temp 69.
`CC1=CC(C)=NC2Nc3c(C)cc(C)cc3C(=N)C12` (stereo not given) gave HCMV UL50-53 inh -76, GIV Gai3 FP 104, Sa growth inh 85 and Sa growth inh second temp 38.

Part of the list above in order of molar mass, smallest number first.
Screening CC(C)(C)c1ccn[nH]1 returned HCMV UL50-53 inh -10 and GIV Gai3 FP 102.
Screening CC(=O)N/C(=C\c1cc(F)cc(F)c1)C(=O)O returned HCMV UL50-53 inh -6, GIV Gai3 FP 99, Sa growth inh 102 and Sa growth inh second temp 68.
`CC1=CC(C)=NC2Nc3c(C)cc(C)cc3C(=N)C12` (stereo not given) gave HCMV UL50-53 inh -76, GIV Gai3 FP 104, Sa growth inh 85 and Sa growth inh second temp 38.
For COCC(C)NC(=O)C1=CC(c2ccc(C)cc2)=NS(=O)(=O)N1C (stereo not given) the results were HCMV UL50-53 inh -21, GIV Gai3 FP 109, Sa growth inh 110 and Sa growth inh second temp 100.
For COc1ccc(OCc2nn3c(-c4cc5ccccc5[nH]4)nnc3s2)cc1 the results were HCMV UL50-53 inh -9 and GIV Gai3 FP 110.
Screening O=C(COCc1cc(-c2ccc3c(c2)OCO3)on1)NCCC1=CCCCC1 returned HCMV UL50-53 inh -7 and GIV Gai3 FP 101.
COC(=O)CC(C(=O)Nc1ccc(C)cc1Br)N1CCN(C)CC1 (stereo not given) was read as HCMV UL50-53 inh 4, GIV Gai3 FP 103, Sa growth inh 95 and Sa growth inh second temp 90.
`O=C1c2ccccc2-c2onc3ccc(Oc4c(F)c(F)c(F)c(F)c4F)c1c23` gave HCMV UL50-53 inh -51, GIV Gai3 FP 103, Sa growth inh 118 and Sa growth inh second temp 69.
For CCN(CC)S(=O)(=O)c1ccc(C(=O)Nc2ccc3c(c2)OC(C)(C)O3)cc1 the results were GIV Gai3 FP 106, Sa growth inh 93 and Sa growth inh second temp 73.
For CCOc1ccc(C(=O)c2cn(CC(=O)Nc3ccc4c(c3)OCCO4)c3ccc(F)cc3c2=O)cc1 the results were HCMV UL50-53 inh -34, GIV Gai3 FP 97, Sa growth inh 100 and Sa growth inh second temp 83.
`CCOC(=O)c1c(NC(=O)CCN2C(=O)/C(=C/c3ccc(OC)cc3)SC2=S)sc2c1CCCC2` gave HCMV UL50-53 inh -35 and GIV Gai3 FP 108.

(next part)
For COc1ccccc1NC(=O)C(=O)c1cc(C)n(-c2cc(C)cc(C)c2)c1C the results were HCMV UL50-53 inh 10, GIV Gai3 FP 98, Sa growth inh 90 and Sa growth inh second temp 97.
For CN1C(=S)SC(c2ccccc2)N(C)C1c1ccccc1 (stereo not given) the results were GIV Gai3 FP 103, Sa growth inh 92 and Sa growth inh second temp 83.
Screening COc1ccccc1CNS(=O)(=O)c1c(C)nc2sc(C)cn2c1=O returned GIV Gai3 FP 107, Sa growth inh 126 and Sa growth inh second temp 91.
Cc1nc2ccccc2c(=O)n1-c1cccc(NC(=O)c2ccc3c(c2)OCO3)c1 was read as HCMV UL50-53 inh -1, GIV Gai3 FP 103, Sa growth inh 131 and Sa growth inh second temp 96.
For O=C(CSc1nncn1-c1ccc(C(F)(F)F)cc1)c1cc2ccccc2o1 the results were HCMV UL50-53 inh -24, GIV Gai3 FP 95, Sa growth inh 69 and Sa growth inh second temp 81.
`Cc1ccc(/C=C(\C#N)c2cccs2)cc1` gave HCMV UL50-53 inh -18, GIV Gai3 FP 106, Sa growth inh 84 and Sa growth inh second temp 88.
Screening CN(C)CCSc1nc(O)c(-c2ccccc2)c(=O)[nH]1 returned HCMV UL50-53 inh -2&4, GIV Gai3 FP 104&99, Sa growth inh 87 and Sa growth inh second temp 91.
COc1ccc(-c2nnc(Nc3c(C)n(C)n(-c4ccccc4)c3=O)c3ccccc23)cc1 was read as HCMV UL50-53 inh -43 and GIV Gai3 FP 104.
Screening CCN(CCCNC(=O)CN1N=C(c2ccc(C)cc2)CCC1=O)c1ccccc1 returned GIV Gai3 FP 96, Sa growth inh 92 and Sa growth inh second temp 97.
For CCOC(=O)C1CCN(C(=O)CN2C(=O)c3ccccc3Sc3ncccc32)CC1 the results were HCMV UL50-53 inh 26 and GIV Gai3 FP 102.
Screening CCOC(=O)CSCCOc1ccc(C=C2C(=O)N(C)C(=O)N(C)C2=O)cc1OC returned HCMV UL50-53 inh 21 and GIV Gai3 FP 102.
Screening C/C(=C\c1ccccc1)C(=O)NCCCn1ccnc1 returned HCMV UL50-53 inh -4, GIV Gai3 FP 100, Sa growth inh 101 and Sa growth inh second temp 104.
For Cc1ccc(CNC(=O)c2nc(SCc3ccc(C)cc3)ncc2Cl)cc1 the results were HCMV UL50-53 inh 5, GIV Gai3 FP 106, Sa growth inh 98 and Sa growth inh second temp 98.
For CC(C)n1c(=O)c2ccc(C(=O)NC3CCCC3)cc2n2c(=O)[nH]nc12 the results were HCMV UL50-53 inh -34 and GIV Gai3 FP 98.
Screening COc1ccc(NC(=O)C2Nc3cc(F)ccc3S(=O)(=O)N2)c(OC)c1 (stereo not given) returned HCMV UL50-53 inh -20 and GIV Gai3 FP 103.
Screening Cc1ccc(N(C)C(=O)C2CCCN(c3ncnc4c3nc3n4CCCCC3)C2)cc1C (stereo not given) returned GIV Gai3 FP 111, Sa growth inh 75 and Sa growth inh second temp 91.
Screening Cc1ccccc1NC(=O)CN1CCCC1 returned HCMV UL50-53 inh -17, GIV Gai3 FP 97, Sa growth inh 99 and Sa growth inh second temp 99.
Screening CCOCC(=O)Nc1ccc(-c2cn3c(C)csc3n2)cc1 returned GIV Gai3 FP 105, Sa growth inh 105 and Sa growth inh second temp 88.
`Cc1nnc(SCc2ccc(C(=O)N3CCOCC3)cc2)s1` gave HCMV UL50-53 inh -5, Sa growth inh 105 and Sa growth inh second temp 90.
For O=C(CCCc1ccccc1)N1CCCCCCC1 the results were HCMV UL50-53 inh -26, GIV Gai3 FP 108, Sa growth inh 125 and Sa growth inh second temp 108.
`COC(=O)c1ccc2nsnc2c1` gave GIV Gai3 FP 86, Sa growth inh 107 and Sa growth inh second temp 86.
CC(C)N(C(=O)CSc1nnnn1Cc1ccccc1)C(C)C was read as HCMV UL50-53 inh -7, GIV Gai3 FP 101, Sa growth inh 116 and Sa growth inh second temp 80.
CC(C)c1cc(=O)[nH]c(SCC(=O)O)n1 was read as HCMV UL50-53 inh -29, GIV Gai3 FP 103, Sa growth inh 107 and Sa growth inh second temp 81.
`COc1ccccc1NC(=O)c1cc2cc3ccc(OC)c(Cl)c3nc2s1` gave GIV Gai3 FP 98, Sa growth inh 83 and Sa growth inh second temp 71.
CN(C(=O)CSc1nc2ncccc2o1)c1ccccc1 was read as HCMV UL50-53 inh -41&-19, GIV Gai3 FP 116&107, Sa growth inh 98 and Sa growth inh second temp 82.
Screening O=C(CSc1cn(CC(=O)N2CCCCC2)c2ccccc12)Nc1ccccc1F returned GIV Gai3 FP 103, Sa growth inh 102 and Sa growth inh second temp 81.
CN1C2CCC1CC(N(CCc1c[nH]c3ccccc13)C(=O)c1ccc(Cl)cc1)C2 (stereo not given) was read as HCMV UL50-53 inh -18 and GIV Gai3 FP 103.
`O=c1[nH]c(-c2ccc(Cl)cc2)nc2c1CSC2` gave HCMV UL50-53 inh 0, GIV Gai3 FP 107, Sa growth inh 95 and Sa growth inh second temp 88.
For Cc1nc2c(o1)NC(N)=C(C#N)C2c1cn[nH]c1C (stereo not given) the results were HCMV UL50-53 inh 2, Sa growth inh 71 and Sa growth inh second temp 22.
For Cc1noc(C)c1CSc1ncccc1C(=O)N(C)Cc1c(F)cccc1Cl the results were HCMV UL50-53 inh 22, Sa growth inh 88 and Sa growth inh second temp 96.
For Cc1cc(S(=O)(=O)NCc2ccc3c(c2)CCO3)c(C)s1 the results were HCMV UL50-53 inh -2, GIV Gai3 FP 104, Sa growth inh 89 and Sa growth inh second temp 105.
CC1Cc2ccccc2N1S(=O)(=O)c1cccc(C(=O)N2CC(=O)Nc3ccccc32)c1 (stereo not given) was read as HCMV UL50-53 inh -2, Sa growth inh 108 and Sa growth inh second temp 99.
Fc1ccc(-c2cn3cc(Cc4ccccc4Cl)sc3n2)cc1 was read as HCMV UL50-53 inh -13, GIV Gai3 FP 105, Sa growth inh 89 and Sa growth inh second temp 96.
Screening Cc1[nH]c2ccc(C(=O)OCC#N)cc2c1C returned HCMV UL50-53 inh -25, Sa growth inh 81 and Sa growth inh second temp 88.
`CCCn1c(=O)n(-c2ccccc2)c(=O)c2c3c(sc21)CN(C(C)=O)CC3` gave HCMV UL50-53 inh -28, GIV Gai3 FP 101, Sa growth inh 91 and Sa growth inh second temp 90.
`C/C(O)=C(\C#N)P(C)(=O)OC(C)C` (stereo not given) gave HCMV UL50-53 inh 5, GIV Gai3 FP 107, Sa growth inh 102 and Sa growth inh second temp 105.
For O=C(Nc1ccc(Br)cc1)C(Cc1ccccc1)NS(=O)(=O)c1cccs1 (stereo not given) the results were GIV Gai3 FP 105, Sa growth inh 123 and Sa growth inh second temp 81.
`CCOC(=O)c1sc(NC(=O)CC)c(C#N)c1C` gave HCMV UL50-53 inh -41, GIV Gai3 FP 101, Sa growth inh 87 and Sa growth inh second temp 84.
Screening O=C(CN1CCCCC1)Nc1ccccc1 returned HCMV UL50-53 inh -3, GIV Gai3 FP 102, Sa growth inh 101 and Sa growth inh second temp 96.

Screening data as filed in PubChem BioAssay.
